From PubChem BioAssay
PrP UTR inh: suppresses PrP 5' UTR mRNA reporter expression; cell-based PrP 5' UTR mRNA reporter, plate reader; inhibition, % (no concentration beside the values); hit rate 0.35% among 340,000; AID 488862;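 active = every replicate at 50% or more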;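 note: 0 = median of the neutral control wells; tested in H4 reporter cells; numbers are from one replicate; inactives centre near -14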
Sa RN4220 lethal: kills Staphylococcus aureus RN4220; S. aureus RN4220 growth, OD600, 16 h; inhibition, % (test concentration not listed); hit rate 0.33% among 330,000;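 active = z-score of -3 or lower and OD600 up to 0.18 on both plates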;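 note: plate controls were untreated cells for no effect and reference antibiotic for full effect; stock transfer was 100 nL into about 80 µL; one replicate is shown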
Mtb hypoxia inh: reduces hypoxia-regulated biosensor signal in M. tuberculosis. M. tuberculosis hypoxia-regulated fluorescent reporter, fluorescence. fluorescence inhibition, % (no concentration beside the values). hit rate 0.1% among 300,000;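 active = 35 to 45% if threefold the growth effect, above 45% if 1.5-fold the growth effect; inactive = the rest, general growth blockers included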;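 note: wells of about 50 µL received 100 nL stock; 0% = vehicle wells and 100% = reference inhibitor wells; whole bacteria with a GFP reporter of the hypoxia response; strong numbers were not always called active; many hits fall short of the cut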
Bead autofluor: compound fluorescence in toxin protease inhibitor counterscreen; compound autofluorescence counterscreen, microsphere flow cytometry; hits give high values; hit rate 3.1% among 360,000; fluorescence intensity (no concentration beside the values);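 active = at least 3 SD above the mean of all compounds, about 16000 in these data; inconclusive = too few beads counted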;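 note: 100 nL of 1 mM stock went into each well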
BJeLR viability: BJeLR cell viability loss. BJeLR (HRASV12) viability, CellTiter-Glo ATP luminescence, 48 h; reference of the scale not given here. inhibition, % (concentration not given with the values). hit rate 0.17% among 300,000. AID 1554;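 active = replicate mean above 50%; inconclusive = above 50% but judged a plate artefact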;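 note: 50 nL library stock added to about 25 µL; numbers are from one replicate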
Sa ugtP lethal: kills S. aureus RN4220 lacking UgtP; hit rate 0.54% among 330,000; S. aureus RN4220 ugtP deletion, OD600 growth, 16 h; some inactives read as strong as hits; growth inhibition, % (test concentration not listed); AID 1259309;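 active = z-score under -3 and OD600 up to 0.15 on both plates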;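 note: plate controls were untreated wells for no effect and antibiotic for full effect; wells of about 80 µL received 100 nL stock; the first replicate is given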
Mtb hypoxia inh growth: also measured in Mtb hypoxia inh; calls as there; growth inhibition, %; measured here: M. tuberculosis growth (absorbance);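 0% = vehicle and 100% = reference antibiotic; read after six days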
The depositor's hits bear a star; ? = inconclusive; nt = no result given.

smiles,Sa ugtP lethal,PrP UTR inh,Mtb hypoxia inh,BJeLR viability,Mtb hypoxia inh growth,Sa RN4220 lethal,Bead autofluor
CCC(=O)N1CC2(CC(c3cccc(NC(=O)CC(c4ccccc4)c4ccccc4)c3)=NO2)CC1C(N)=O (stereo not given),-2,nt,-2,nt,-4,-0.2,nt
O=[N+]([O-])c1cccc(NC(=S)N2CCN(c3ccccn3)CC2)c1,3,-15,8,nt,-1,-1.3,6234
O=C(CNC(=O)c1ccc(Br)cc1)Nc1ccc2c(c1)CCC2,12,6,2,nt,-2,-0.8,4572
CC(=O)Nc1ccc(C(C)=NNC(=O)c2ccncc2)cc1,4,nt,nt,nt,nt,-1.8,nt
O=C(N/N=C\c1c[nH]c2ccccc12)c1ccc(O)cc1,nt,-48,nt,1,nt,nt,4019
Cc1cc(C)c2c3c(sc2n1)C(=O)N(c1ccccc1)CC(=O)N3,12,-16,15,3,7,3.2,6700
CN(C)c1ccnc2sc3c(=O)n(-c4ccccc4)cnc3c12,2,-18,1,17,15,7.6,9802
Cc1ccc(C(C)C)c(OCCCn2ccnc2C)c1,6,-32,15,1,14,2.4,?
CCn1c(=O)c(C(=O)NNC(=O)c2cccc(Cl)c2)c(O)c2ccccc21,100*,6,7,-1,8,100*,5622
CN(C)c1ccc(C2Nc3ccccc3C(=O)N2NS(C)(=O)=O)cc1 (stereo not given),-1,-30,-9,12,-3,-2.5,3910
c1ccc2sc(-c3ccc4c(c3)OCO4)nc2c1,12,20,0,nt,1,2.5,21120*
CC1S/C(=N/N=C2CCCCC2)NC1=O (stereo not given),6,-14,-2,-7,0,4.1,2387
Clc1ccc(CN=C2Nc3ccccc3CS2)cc1,52,-82,-15,7,1,19,9289
CCCCn1c(CCC(=O)O)nc2cc(S(=O)(=O)N3CCCC3)ccc21,-6,2,-4,nt,-5,-3.6,3072
COc1ccc(NC(=O)CN(C)C(=O)c2cccc(S(=O)(=O)N3CC4(C)CC3CC(C)(C)C4)c2)cc1 (stereo not given),11,-12,3,-8,6,3.3,nt
CCOc1cccc2sc(N(CCN(CC)CC)C(=O)c3ccc(S(=O)(=O)N4CCCCC4)cc3)nc12,3,3,1,2,4,-0.2,2462
Cc1ccc2[nH]c(=O)c(CN(CC3CCCO3)C(=S)NCc3ccco3)cc2c1 (stereo not given),-6,-18,2,10,-2,3.9,2309
CN1/C(=C\C(=O)C[n+]2ccc3ccccc3c2)C(C)(C)c2ccccc21,0,-12,7,20,7,-1.5,8956
COc1ccc(CCNC(=O)[C@@H](NC(N)=O)C(C)C)cc1,12,-25,5,3,-4,2.9,4113
Cn1ccnc1SCCNC(=O)CCc1nnc(CCc2ccccc2)o1,9,2,15,5,2,4.4,2123
O=C1NC(=O)N(c2ccccc2)C(=O)/C1=C\C=C\c1ccccc1,nt,-19,nt,38,nt,nt,?
CCCCCCCc1ccc(C2NC(=S)NC3=C2C(=O)c2ccccc23)cc1 (stereo not given),-5,nt,3,-3,-5,4.7,nt
CCC(C)NC(=O)c1cc2cc3ccc(OC)cc3nc2s1 (stereo not given),-8,-66,20,12,15,-1.9,3620
Cc1ccc(-c2c[n+](CC(=O)Nc3nc(-c4ccc(F)cc4)cs3)c3n2CCC3)cc1,-24,-6,13,-4,30,-5.6,2406
Cc1nc(CSc2ccccc2)cc(=O)[nH]1,1,-19,0,10,1,2.6,2526
COC(=O)/C(=C\Nc1ccccc1N)c1ncc(C(F)(F)F)cc1Cl,1,-11,nt,4,nt,2.3,2713
Cc1ccc(Oc2nc(CN3CCOCC3)nc3sc4c(c23)CCC(C)C4)cc1 (stereo not given),3,-16,10,-23,6,3.1,9051
COc1ccc(N(CC(=O)Nc2cc(C)ccc2OC)S(=O)(=O)c2c(C)noc2C)cc1,-3,3,15,8,9,3.5,10772
COCCc1nnc(NC(=O)C(C)C)s1,7,-5,9,-2,-3,2.9,nt
CCOC(=O)NC(NCc1cccc(C(F)(F)F)c1)(C(F)(F)F)C(F)(F)F,-5,-6,2,-1,5,3.1,2028
CC(O/N=C(\N)c1ccccc1)C(=O)Nc1cccc(C(F)(F)F)c1 (stereo not given),-1,-19,18,nt,6,5.9,3687
O=C(NCc1ccccc1)C1=C[C@H](C2CC2)C[C@H](OCCCCO)O1,nt,-14,nt,5,nt,nt,3414
CC(C)C1=NN(C(=O)c2ccccc2)C(O)(C(C)(C)C)C1 (stereo not given),0,-61,5,9,4,5.0,2179
Cn1c(C(C(=O)NCC2CCCO2)N(C(=O)Cn2nnc3ccccc32)C2CCCCC2)nc2ccccc21 (stereo not given),1,-20,2,-9,9,3.7,21506*
Cn1c(N)c(C(=O)NCc2ccccc2)sc1=S,-2,-10,-1,-7,9,0.3,12805
CS(=O)(=O)c1ccc(-c2cccc(NC(=O)COc3ccccc3)c2)nn1,4,16,-5,1,1,1.3,4305
Nc1ccccc1C#Cc1ccc2[nH]ccc2c1,-9,-100,5,14,8,-7.3,3692
COc1ccccc1N(CC(=O)NCCN1CCOCC1)S(=O)(=O)c1ccccc1,6,-22,0,-7,-1,2.2,3850
CCc1cccc(CC)c1NC(=O)COC(=O)c1ccccc1-c1nc2ccccc2s1,-11,-5,9,1,2,14,2639
COc1ccc(CCNC(=O)C(=O)Nc2nccs2)cc1OC,2,-3,17,-4,6,4.8,4083
Cn1c(SCC(=O)NNC(=O)c2ccc(Br)cc2)nnc1-c1cccnc1,-1,-26,2,4,6,-2.8,4536
CN1CCN(S(=O)(=O)c2cccc(C(=O)Nc3nccs3)c2)CC1,-2,-13,-13,-2,-7,3.8,4040
Cc1cc2c(c(SCC(=O)N(C)c3ccccc3)n1)C(=O)OC2,3,-15,nt,2,nt,0.8,4182
O=[N+]([O-])c1cc(O)c(O)c([N+](=O)[O-])c1,6,-13,20,nt,10,9.4,5285
CCCCNC(=O)Cn1c(=O)oc2cc(S(=O)(=O)N3CC(C)CC(C)C3)ccc21 (stereo not given),13,-41,11,6,7,6.9,4420
COc1ccccc1C1=NOC(COC(=O)c2ccc3ccccc3n2)C1 (stereo not given),4,-14,5,-4,3,3.4,7623
O=C(C[N+]12CCC(CC1)C(CO)C2)c1ccc([N+](=O)[O-])cc1 (stereo not given),5,-8,4,5,-5,3.8,4138
O=C(Cc1ccc(-n2c(=O)[nH]c3ccccc3c2=O)cc1)N1CCN(c2cccc(Cl)c2)CC1,-4,-11,1,2,12,3.9,21953*
COc1cccc(CNC(=O)c2ccc(OC)c(S(=O)(=O)NC3CCCC3)c2)c1,0,-28,5,-1,1,6.9,6120
Cc1ccc(S(=O)(=O)Cc2cccc(C(=O)N3CCOCC3)c2)cc1,-2,-12,17,-3,9,-7.7,2423

Grouped by structure, those above with an aryl thioether with sulfur outside any ring (4)
smiles,Sa ugtP lethal,PrP UTR inh,Mtb hypoxia inh,BJeLR viability,Mtb hypoxia inh growth,Sa RN4220 lethal,Bead autofluor
Cn1ccnc1SCCNC(=O)CCc1nnc(CCc2ccccc2)o1,9,2,15,5,2,4.4,2123
Cc1nc(CSc2ccccc2)cc(=O)[nH]1,1,-19,0,10,1,2.6,2526
Cn1c(SCC(=O)NNC(=O)c2ccc(Br)cc2)nnc1-c1cccnc1,-1,-26,2,4,6,-2.8,4536
Cc1cc2c(c(SCC(=O)N(C)c3ccccc3)n1)C(=O)OC2,3,-15,nt,2,nt,0.8,4182

Next section
smiles,Sa ugtP lethal,PrP UTR inh,Mtb hypoxia inh,BJeLR viability,Mtb hypoxia inh growth,Sa RN4220 lethal,Bead autofluor
O=C(Cc1cccc(NC(=O)C2CCCN(C(=O)C3CCCC3)C2)c1)Nc1ccc(C(=O)N2CCCCC2)cc1 (stereo not given),1,10,-4,nt,-2,3.1,3775
Cc1cccnc1NC1OC(=O)c2ccccc21 (stereo not given),0,-14,nt,-5,nt,39,4509
COc1nnc(-c2ccc(C)c(S(=O)(=O)NCC3CCCO3)c2)c2ccccc12 (stereo not given),1,-8,2,-8,-1,2.0,5942
Cc1ccccc1CNC1CCCCC1,1,5,9,-4,8,4.1,2048
O=[N+]([O-])c1ccc2c(c1)S(=O)c1ccccc1-2 (stereo not given),0,-5,9,1,1,5.5,4517
O=C1CN(S(=O)(=O)c2ccc(Br)cc2)c2ccccc2N1,0,-8,-11,1,0,2.3,5725
Cc1cc(=O)oc2c3c4c(cc12)OCCN4CCC3,-3,1,1,-17,2,1.8,4947
CCOC(=O)c1c(C)nc2sc3c(=O)n(-c4ccc(C(C)=O)cc4)cnc3c2c1-c1ccc(Cl)cc1,-1,-12,3,4,7,3.8,3488
O=C(CCCNC(=O)c1ccc(Cl)cc1)OCc1cccc(Br)c1,2,-15,3,-1,2,-0.8,5163
COc1ccc(C/C(N)=N/OC(=O)Cc2ccccc2)cc1OC,nt,-17,nt,-3,nt,nt,3435
COC(=O)c1cc(CNC(=O)CC(C)c2ccccc2)ccc1OC (stereo not given),10,1,4,3,4,-1.5,6047
O=C(ON=Cc1ccc(Cl)cc1)C1CCCCC1,7,nt,4,nt,10,2.7,nt
O=C(O)C1C2C=CC(C2)C1C(=O)NCc1cccnc1 (stereo not given),-2,-7,1,11,7,-0.7,5889
CCOCCCNC(=O)CCNC(=O)c1cc(OC)c(OC)c(OC)c1,2,-15,4,-15,9,3.0,20238*
Cc1c(CCC(=O)N2CCC(C(=O)O)(c3ccccc3)CC2)c(=O)oc2cc3oc4c(c3cc12)CCCC4,9,-48,nt,-7,nt,14,5257
CC(=O)c1ccc(NC(=O)C2CCCC2)cc1,-3,-13,1,1,-1,-2.4,?
COc1ccc(C(=O)CC(=O)O)c2c1C=CC(C)(C)O2,7,-14,6,-1,-1,5.6,nt
Cc1nc(-c2cccnc2)sc1C(=O)Nc1ccc(C(F)(F)F)cc1,-14,4,5,-2,3,-2.1,22745*
CCOC(=O)c1nnn(-c2nonc2N)c1COc1cc(C)c(Cl)c(C)c1,-18,-7,nt,4,nt,7.7,2781
Cc1nc([N+](=O)[O-])cn1CC(=O)c1ccc(Br)cc1,1,0,9,9,1,3.9,3377
Nc1cc(OC(=O)c2ccc(F)cc2)nn1S(=O)(=O)c1ccccc1,1,-13,7,-5,4,3.1,5939
O=C(c1cc(S(=O)(=O)N2CCOCC2)ccc1F)N(Cc1nnc(-c2ccccc2Cl)o1)C1CC1,-1,-27,10,-3,-1,4.2,6338
CCOc1cc(N2CCOCC2)c(OCC)cc1NC(=O)COC(=O)c1ccc(OC)c([N+](=O)[O-])c1,3,-17,3,nt,2,4.1,5564
N#C/C(=C(/O)c1cccs1)c1nc2ccccc2[nH]1,-8,-31,5,1,8,4.7,6006
